# Sa RN4220 lethal: S. aureus RN4220 growth inhibition; inhibition, % (concentration not given with the values); 330,000 compounds, 0.33% hits; OD600, 16 h;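 active = z-score of -3 or lower and OD600 up to 0.18 on both plates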;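 also: plate controls were untreated cells for no effect and reference antibiotic for full effect; stock transfer was 100 nL into about 80 µL; one replicate is shown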
# Mtb hypoxia inh: Mtb hypoxia fluorescent reporter inhibition. AID 1159583. 300,000 compounds, 0.1% hits. fluorescence inhibition, % (concentration not given with the values). M. tuberculosis hypoxia-regulated fluorescent reporter, fluorescence;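 active = 35 to 45% if threefold the growth effect, above 45% if 1.5-fold the growth effect; inactive = the rest, general growth blockers included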;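 also: wells of about 50 µL received 100 nL stock; 0% = vehicle wells and 100% = reference inhibitor wells; whole bacteria with a GFP reporter of the hypoxia response; strong numbers were not always called active; many hits fall short of the cut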
# Autofluor counter: counter-screen for toxin protease inhibitors: compound fluorescence. compound autofluorescence counterscreen, microsphere flow cytometry; hits give high values. fluorescence intensity (no concentration beside the values). 360,000 compounds, 3.1% hits. AID 624483;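 active = at least 3 SD above the mean of all compounds, about 16000 in these data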;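 also: 100 nL of 1 mM stock went into each well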
# BJeLR viability: BJeLR cell viability loss. BJeLR (HRASV12) viability, CellTiter-Glo ATP luminescence, 48 h; reference of the scale not given here. inhibition, % (test concentration not listed). 300,000 compounds, 0.17% hits. AID 1554;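 active = replicate mean above 50%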;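 also: 50 nL library stock added to about 25 µL; numbers are from one replicate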
# Sa ugtP lethal: growth inhibition of S. aureus ugtP deletion strain | S. aureus RN4220 ugtP deletion, OD600 growth, 16 h; some inactives read as strong as hits | growth inhibition, % (concentration not given with the values) | 330,000 compounds, 0.54% hits | AID 1259309;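 active = z-score under -3 and OD600 up to 0.15 on both plates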;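 also: plate controls were untreated wells for no effect and antibiotic for full effect; wells of about 80 µL received 100 nL stock; the first replicate is given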
# PrP UTR inh: suppresses PrP 5' UTR mRNA reporter expression. cell-based PrP 5' UTR mRNA reporter, plate reader. inhibition, % (concentration not given with the values). 340,000 compounds, 0.35% hits;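 active = every replicate at 50% or more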;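 also: 0 = median of the neutral control wells; tested in H4 reporter cells; numbers are from one replicate; inactives centre near -14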
# Mtb hypoxia inh growth: also measured in Mtb hypoxia inh; calls as there; growth inhibition, %; measured here: M. tuberculosis growth (absorbance);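 0% = vehicle and 100% = reference antibiotic; read after six days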
# * marks the source's active call; other numbers are inactive results; . = not tested or not shown.
SMILES,Sa RN4220 lethal,Mtb hypoxia inh,Mtb hypoxia inh growth,Autofluor counter,BJeLR viability,Sa ugtP lethal,PrP UTR inh
CC(C)Oc1cccc(C(=O)C2CCCN(Cc3ccc(Oc4ncccn4)cc3)C2)c1 (configuration not stated),5.1,6,2,4777,-16,2,-6
O=C1/C(=C/c2cccs2)Sc2ccccc21,0.4,5,5,7626,-9,-10,-13
CCOc1ccc(NC(=O)CN(C)C(=O)c2cccnc2Sc2ccc(Cl)cc2)cc1OCC,3.4,0,2,6891,8,4,-7
COC(=O)[C@H](CC(C)C)NC(=O)c1cc2c(cn1)[nH]c1ccccc12,2.1,2,2,3017,-2,0,-14
Cc1ccc(S(=O)(=O)N/N=C\c2cn(CC(N)=O)c3ccccc23)cc1C,.,.,.,6426,2,.,7
CCC(C)(C)C1CCC(NC(=O)c2ccc(S(=O)(=O)N3CCOCC3)cc2)CC1 (configuration not stated),2.7,11,2,3633,.,-2,-1
CSc1ccccc1OCc1cc(C(=O)NCc2ccc(C)s2)no1,1.3,10,12,5091,-2,2,-26
COc1ccc(C(=O)NC2CCCCCC2)cc1S(=O)(=O)N1CCCc2ccccc21,-7.6,.,.,4961,-7,-13,-16
CC1CC(C)CN(C(=O)COC(=O)c2cc3ccccc3cc2O)C1 (configuration not stated),2.3,14,10,3386,9,-2,-11
c1ccc2c(COn3nnc4ccccc43)cccc2c1,7.2,3,9,21859*,3,-15,-105
N#C/C(=C\c1ccccc1)C(=O)N1CCN(c2ccccc2F)CC1,.,.,.,5430,-3,.,4
CCOc1cccc(NC(=O)CSc2nncn2N)c1,2.9,-7,-2,8772,2,1,-13
CC(NC(=O)COc1ccccc1F)C1CC2CCC1C2 (configuration not stated),0.4,.,.,2102,2,-4,-19
CN(C)/C=C(/C(=O)c1ccc(Cl)cc1)S(C)(=O)=O,-1.3,-3,-2,5233,-1,0,-8
Cc1ccc(Cn2cc(/C=N/Nc3ccc([N+](=O)[O-])cn3)c3ccccc32)cc1,.,.,.,3397,-10,.,-11
CC(C)(C)C(=O)/C=c1\[nH]c(=O)/c(=C\c2ccccc2F)s1,.,.,.,3749,-3,.,-21
COc1cc(NC(=O)C23CC4CC(C2)CC(n2cnc([N+](=O)[O-])n2)(C4)C3)cc(OC)c1,-3.8,21,12,7976,-2,33,-21
O=C(CCS(=O)(=O)c1ccc(Br)cc1)Nc1ccccc1Cl,2.1,0,-3,3722,-3,1,-29
Cc1ccc(S(=O)(=O)N2CCOCC2)cc1NC(=O)CSc1ccccn1,-0.2,13,-2,4560,14,2,-17
O=C(NCCCc1ccccn1)C1CCC(=O)N(Cc2cccc(F)c2)C1 (configuration not stated),0.4,3,-5,5791,1,1,-16
COc1ccc(C(=O)Nc2cc(S(=O)(=O)N3CCCC3)ccc2Cl)cc1,2.7,9,2,3655,.,-1,-9
CC(=O)Nc1nc2ccc(C(=O)NCCOC(=O)C3CCCCC3)cc2s1,4.1,11,-1,2149,0,8,-8
COc1ccc(C(CNC(=O)c2ccc(C)c(S(=O)(=O)N3CCOCC3)c2)N2CCCC2)cc1 (configuration not stated),4.9,6,4,11261,.,3,-26
COCCNC(=O)COC(=O)/C=C/c1c(C)nn(Cc2ccc(Cl)cc2Cl)c1Cl,.,.,.,2942,14,.,1
CCN1CCN(c2ccc(S(=O)(=O)N3CCCCC3)cc2NC(=O)/C=C/c2ccc(OC(F)F)cc2)CC1,2.9,13,7,4022,14,7,-4
CC1CC(C)(C)NC(=S)N1CCCC(=O)NCc1ccccc1 (configuration not stated),16,6,2,4450,0,6,3
O=S(=O)(NC1c2cccc3cccc(c23)C1N1CCNCC1)c1ccc(Cl)cc1 (configuration not stated),-2.6,-7,4,4389,1,-12,-19
O=C(Nc1ccccc1)c1nc[nH]c1C(=O)N1CCN(c2ccccc2)CC1,4.4,11,9,3998,.,-9,-10
Cc1cc(Cn2nc(-c3ccccc3)cc2C(=O)NCc2cccs2)on1,-1.7,4,2,3903,17,4,-17
COC(=O)C(NC(=O)C(NC(=O)C1CCC(C)CC1)C(C)C)C(C)C (configuration not stated),2.8,10,9,4553,-24,2,-8
COc1ccccc1N1CCN(Cc2c(F)cccc2Cl)CC1,2.6,16,9,21264*,11,-1,-32
Nc1nc(SCc2ccccc2Cl)[nH]c(=O)c1-c1ccccc1,0.7,19,15,2181,2,9,-11
COc1ccc(CNC(=O)OCc2nccnc2C(=O)Nc2ccc(Br)cn2)cc1,1.6,7,5,5652,-14,-2,-19
NC(=S)Nc1ccc(Cl)c(Cl)c1,0.6,24,15,4462,2,4,-7
CN(C)S(=O)(=O)c1ccc(NC(=O)C2COc3ccccc3O2)cc1 (configuration not stated),3.0,.,.,4407,4,10,-4
CCn1c(CNC(=O)c2ccccc2)nc2ccccc21,-0.6,-2,4,10155,-8,11,-29
Cc1ccc(NC(=O)CC2=NC(=O)C(CC(=O)Nc3ccccc3F)S2)cc1 (configuration not stated),2.0,3,9,4166,9,5,-16
COC(=O)C1=C(c2ccc(S(C)(=O)=O)cc2)CC2CCC1N2C(=O)NCc1ccc(F)cc1 (configuration not stated),5.8,8,7,.,.,-4,.
CCN(CC)c1ccc(NC(=O)c2cc3c(OC)cccc3[nH]2)cc1,5.3,5,-9,3270,-9,10,4
O=C(c1cccc(N2C(=O)C3C4C=CC(C4)C3C2=O)c1)N1CCCCCC1 (configuration not stated),-2.6,.,.,2393,8,3,-18
COc1ccc(OCCNC(=S)Nc2cccc3ccccc23)cc1,1.4,2,14,22439*,-4,-1,-1
CCOC(=O)c1cc2c(=O)n3ccccc3nc2n(CCOC)c1=NC(=O)C(C)(C)C,2.8,6,9,3821,0,1,-5
C#CC[N+](C)(C)CCN1C(=O)C2C(c3ccccc3)C=CC(c3ccccc3)C2C1=O (configuration not stated),0.4,13,5,4822,-1,10,-22
CN(c1ccccc1)C(c1ccc(F)cc1)c1nnnn1C1CCCC1 (configuration not stated),6.6,11,9,23833*,5,1,-34
Cc1ccc(C=Nc2ccccc2C#N)s1,4.0,6,3,2138,-1,7,2
Oc1ccc(-c2nc3ccccn3c2NCc2ccc3c(c2)OCO3)cc1,0.3,.,.,2416,.,10,-25
Nc1cc(C(=O)O)ccc1Nc1ccccc1,4.4,12,9,.,-6,7,-12
CN1CC(=O)N2C(c3ccc(Cl)cc3)c3[nH]c4ccccc4c3C[C@H]2C1=O (some centres not stated),4.4,-10,9,3839,-9,-8,-19
CNC(=O)NC(=O)C(OC(=O)c1cccc(S(=O)(=O)N2CCCCC2)c1)c1ccccc1 (configuration not stated),.,.,.,9526,5,.,-1
COc1ccc(-c2oc(/N=C/N3CCOCC3)c(C#N)c2-c2ccc(OC)cc2)cc1,.,.,.,3885,-2,.,-13
Nc1nc(SCC(=O)NN(c2ccccc2)c2ccccc2)n[nH]1,3.2,2,-1,2406,6,4,-9
O=C(NC1CCCCC1)c1ccc(CS(=O)Cc2ccc(Cl)cc2)o1 (configuration not stated),5.3,9,9,5411,5,13,-21
CC(C)CC(C(=O)NC1CCCCC1)N(Cc1cccs1)C(=O)c1snc(C(N)=O)c1N (configuration not stated),-1.6,-10,-11,3414,13,0,-10
CS(=O)(=O)N(CC(O)Cn1c2ccccc2c2ccccc21)c1cccc2ccccc12 (configuration not stated),-8.5,8,2,3139,3,20,-1
O=C(CSc1ccc(-c2ccccc2)nn1)NC1CCCC1,-2.0,11,13,4352,-1,6,-5
COc1ccc(C)cc1NC(=O)CSc1nnc(-c2ccc(Br)cc2)o1,13,11,5,8390,-2,-29,-49
C=CCn1c(SCC(=O)c2[nH]c(C)c(C(C)=O)c2C)nnc1-c1ccncc1,-2.5,.,.,4717,4,-2,-2
Cc1cccc(OCC(=O)NCc2n[nH]c(=O)c3ccccc23)c1,2.8,4,-10,.,-5,3,-11
Cc1cccn2c(CNCCc3ccccn3)c(C(=O)N3CCOCC3)nc12,2.4,5,5,6072,-5,9,-14
COC(=O)c1ccc(C)c(NC(=O)CN(c2cc(OC)ccc2OC)S(C)(=O)=O)c1,5.9,2,0,8869,42,17,-59

# (list continues)
SMILES,Sa RN4220 lethal,Mtb hypoxia inh,Mtb hypoxia inh growth,Autofluor counter,BJeLR viability,Sa ugtP lethal,PrP UTR inh
Cc1cccc(N(CC(O)CN2CCCC2)S(=O)(=O)c2ccccc2)c1 (configuration not stated),1.8,2,-3,6464,1,7,2
CCn1c(CC(=O)Nc2ccc(F)cc2)nnc1SCC(=O)N1CCOCC1,.,.,.,5213,-4,.,-8
COCc1cc(C)n(CC(=O)NN=Cc2ccc(-c3ccc(Cl)c(C(=O)O)c3)o2)c(=O)c1C#N,3.9,10,10,.,.,13,.
O=[N+]([O-])c1cc(/C=N/n2c(-c3ccncc3)n[nH]c2=S)ccc1Cl,.,.,.,2336,-4,.,-18
Cc1ccccc1NC(=O)C1=CC=CN2CCS(=O)(=O)N=C12,0.7,2,1,4440,.,-2,-22
COc1cccc(Nc2ncccc2C(=O)Nc2ccccc2)c1,-1.3,17,9,3448,-1,27,-8
Cc1cccc(N2CCN(S(C)(=O)=O)CC2)c1C,5.0,.,.,2459,-7,11,-11
O=C(COC(=O)c1ccc2ccccc2n1)NC1CCCCC1,3.6,10,7,4816,.,2,-15
CN(c1ccccc1)S(=O)(=O)c1ccc(C(=O)Nc2nnc(-c3ccco3)o2)cc1,42,0,-1,1974,-6,27,-11
O=C(c1ccc(Cl)c([N+](=O)[O-])c1)N(Cc1ccc(F)cc1)C1CCS(=O)(=O)C1 (configuration not stated),0.6,-10,-2,6062,10,2,-1
COc1ccc(C(CNC(=O)COc2ccc(Br)cc2F)N2CCCC2)cc1 (configuration not stated),12,17,8,4501,-5,9,-9
C#CCOCCOCCOCCNc1nc(N2CCN(C(=O)[C@H]([C@@H](C)CC)n3cc(CCCN=C(N)N)nn3)CC2)nc(N2CCN(C(=O)[C@H](CCCCN)n3cc(CCCC)nn3)CC2)n1,.,.,.,4642,5,.,-28
Cn1ccc(C(=O)NC(=S)N2CCSCC2)n1,0.3,9,1,6629,13,0,-22
Cc1cccc(Cc2nnc(NC(=O)c3cccc(S(=O)(=O)N4CCOCC4)c3)s2)c1,6.4,6,-1,2889,-8,-1,-17
COCC1CCN(Cc2nc(-c3ccc4c(c3)OCO4)no2)C1 (configuration not stated),3.5,-2,11,4184,7,2,-38
O=C(NCCc1cn2ccccc2n1)c1cc(COc2ccc3ncccc3c2)on1,18,-2,12,4264,16,10,-1
c1ccc(CSc2nnc(-c3ccncc3)o2)cc1,-1.9,10,12,15406,-1,2,-33
CSC1=C(C#N)C(c2cccc(Br)c2)CC(=O)N1 (configuration not stated),1.6,8,3,12692,-7,-6,.
C/C(O)=c1/ccc2cccc3nc(C)nc1c23,1.9,-8,-3,5922,3,5,-4
O=C(COc1ccc(Cl)cc1)N1CCN(c2ccc([N+](=O)[O-])c(N3CCOCC3)c2)CC1,-1.2,14,2,2197,1,-7,3
CCOC(=O)C1=C(c2ccccc2)OC(N)=C(C#N)C1C(C)C (configuration not stated),5.7,-1,-6,2588,0,-2,-16
O=C(CSc1n[nH]c(-c2ccco2)n1)Nc1ccccc1Cl,2.8,1,-3,2994,4,6,8
